From PubChem
VDR inhibitor: Inhibitors of the vitamin D receptor (VDR): qHTS | AID 504847, 2011 | 400,000 compounds, 0.93% hits | Potency, µM, for the others: max response, negative = inhibition, usual class: inhibitors | VDR-SRC2-3 peptide fluorescence polarization, 2 h; active = well fitted inhibition curve with a large enough effect; inconclusive = small, poorly fitted or top-dose-only effect, or another doubt; inactive = no such curve, though single readings can be large or run the other way; note: series mostly up to about 120 µM
Target sequence (P11473 whole entry, looked up): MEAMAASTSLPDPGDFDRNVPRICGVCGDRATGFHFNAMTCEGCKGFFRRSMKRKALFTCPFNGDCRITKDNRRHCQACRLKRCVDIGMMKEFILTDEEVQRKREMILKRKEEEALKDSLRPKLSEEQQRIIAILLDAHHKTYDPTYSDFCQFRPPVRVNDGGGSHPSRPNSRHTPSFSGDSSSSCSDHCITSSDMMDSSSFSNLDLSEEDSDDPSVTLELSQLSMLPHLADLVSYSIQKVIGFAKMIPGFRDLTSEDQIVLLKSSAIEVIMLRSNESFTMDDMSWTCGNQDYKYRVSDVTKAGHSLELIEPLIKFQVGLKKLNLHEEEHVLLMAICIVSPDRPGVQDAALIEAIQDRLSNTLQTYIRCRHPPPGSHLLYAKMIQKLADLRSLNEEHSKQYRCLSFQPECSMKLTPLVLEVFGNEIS
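Compounds are added to VDR with labelled SRC2-3 coactivator peptide and held 2 h at room temperature. Inhibition of the VDR–peptide interaction is then read as a change in fluorescence polarization.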
Starred values were filed as active, the others as inactive; u = inconclusive. % is set by controls: 0 for no effect and ±100 for the full control effect; potency is the fitted concentration of half-maximal effect. This is a subset. The share of hits here may be higher or lower than overall.

SMILES | VDR inhibitor
O=C(N[C@@H]1C/C=C\C[C@@H](CC(=O)N(CCO)Cc2ccccc2)C(=O)N[C@H](Cc2ccccc2)COC1=O)OCC1c2ccccc2-c2ccccc21 | 2%
CCC(=O)Nc1ccc(C(=O)CSc2nc3ccc(C)cc3[nH]2)cc1 | -3%
Cc1ccc(C(=O)CCNc2ccc(Br)cc2)o1 | u
Cc1cccc(N(CC(O)Cn2c3ccccc3c3ccccc32)S(=O)(=O)c2ccc(F)cc2)c1 (configuration not stated) | -25%
CCn1c(=O)c(=O)n(CC)c2cc(S(=O)(=O)Nc3cccc(OC)c3)ccc21 | 4%
COc1ccc(-c2nc(C(=O)NCC3CCCO3)cc3c2[nH]c2ccccc23)cc1 (configuration not stated) | -4%
N#CCCN(C(=O)CN1CCN(S(=O)(=O)c2ccc(Cl)s2)CC1)c1ccc(F)cc1 | -16%
O=C(CCc1nc(-c2cccs2)no1)Nc1cccc([N+](=O)[O-])c1 | 0%
Cc1ccc2nc(N3CCN(C(=O)C4CC4)CC3)sc2c1 | 12%
Cc1cc(C)c(S(=O)(=O)Nc2cccc3nsnc23)c(C)c1 | -15%
COc1cccc(CNC(=O)C2CCN(S(=O)(=O)c3ccc4c(c3)NC(=O)CO4)CC2)c1 | 11%
CCOC(=O)c1cnc(SC)nc1Oc1cccc(NC(=O)c2ccc(Cl)cc2)c1 | -19%
CCCCn1c(N)c(N(CCC(C)C)C(=O)CC2OC(=O)c3ccccc32)c(=O)[nH]c1=O (configuration not stated) | 12%
O=C(Nc1nncs1)c1ccc2c(c1)OCO2 | 17%
O=C(Nc1ccc2ccccc2n1)C1CCCCC1 | -5%
COCCNc1ncnc2ccc(-c3ccc(N(C)C)cc3)cc12 | 40µM*
Cc1ccc2sc(N(CCCN(C)C)C(=O)c3ccc(S(=O)(=O)N4CCCCCC4)cc3)nc2c1C | -3%
CCCn1c(/N=C/c2ccc3c(c2)OCO3)nc2ccccc21 | -12%
O=c1c2ccccc2nc(CSc2nnnn2-c2ccccc2)n1-c1ccccc1 | -1%
CCOC(=O)CNC(=O)c1sc(NC(=O)c2cccc(F)c2)nc1C | -10%

VDR inhibitor, hit marks shown above
SMILES | VDR inhibitor
COCCNc1ncnc2ccc(-c3ccc(N(C)C)cc3)cc12 | 40µM*

Additional entries:
SMILES | VDR inhibitor
CCOc1ccc(C(=O)NCC(=O)NCC(c2cccs2)N2CCOCC2)cc1 (configuration not stated) | 15%
O=C1OC(Nc2ccc(Br)cc2F)c2ccccc21 (configuration not stated) | -6%
Nn1c(SC/C=C/c2ccccc2)nnc1-c1ccccn1 | -6%
C/C(=N\NC(=O)c1ccccc1[N+](=O)[O-])c1ccc(Br)s1 | -2%
O=C(Cc1ccccc1Cl)NC1(O)C(=O)c2ccccc2C1=O | 50µM*
COc1cccc(C=O)c1OC(=O)N1CCOCC1 | 7%
NC(=O)C1CCN(C(=O)c2cnn(-c3ccccc3)c2NC(=O)c2cccc(F)c2)CC1 | 17%
CCOC(=O)N1CCN(C(=O)/C(=C/c2ccc(OC)cc2)NC(=O)c2ccccc2)CC1 | -5%
CC(=O)Nc1ccc(S(=O)(=O)N2CCCC2C(=O)Nc2ccc3c(c2)OCCO3)cc1 (configuration not stated) | 6%
N#C/C(=C\c1ccc(Oc2ccc(C(F)(F)F)cc2[N+](=O)[O-])cc1)c1nc2ccccc2[nH]1 | 4%
N=C1C(c2ccccc2)=C(O)CN1c1cccc2ccccc12 | 5%
Cc1ccc(CNC(=O)c2sc3nc4c(c(C(F)(F)F)c3c2N)CCC4)cc1 | -10%
C/C(=N/O)c1ccc(Oc2cnccn2)cc1 | 4%
CC1=C(/C=C/C(C)=C/C=C/C(C)=C/C=C/C=C(C)/C=C/C=C(C)/C=C/C(=O)[C@]2(C)CC(O)CC2(C)C)C(C)(C)CC(O)C1 (some centres not stated) | 2%
Cc1cc(C(=O)N/N=C/c2c[nH]c3ccccc23)c(C)o1 | -5%
CCOC(=O)/C(C#N)=C/c1ccc(-c2ccc(Br)cc2)o1 | -16%
COc1cccc(C(=O)Nc2sc(C(C)C)cc2C(N)=O)c1OC | 9%
CC(C)Cn1c(N)c(C(=O)CSc2ncccn2)c(=O)n(C)c1=O | 7%
NS(=O)(=O)c1ccc(Cl)c(C(=O)Nc2ccccc2[N+](=O)[O-])c1 | 4%
COc1ccc(S(=O)(=O)N2CCOCC2)cc1C(=O)Nc1ccc2c(c1)OCO2 | 5%

Taken from above:
Result of O=C1OC(Nc2ccc(Br)cc2F)c2ccccc21 (configuration not stated) in VDR inhibitor: -6%
Result of N=C1C(c2ccccc2)=C(O)CN1c1cccc2ccccc12 in VDR inhibitor: 5%
Result of Nn1c(SC/C=C/c2ccccc2)nnc1-c1ccccn1 in VDR inhibitor: -6%

Sorted by the number under VDR inhibitor (low to high): three from the list above.
SMILES | VDR inhibitor
O=C1OC(Nc2ccc(Br)cc2F)c2ccccc21 (configuration not stated) | -6%
N=C1C(c2ccccc2)=C(O)CN1c1cccc2ccccc12 | 5%
NC(=O)C1CCN(C(=O)c2cnn(-c3ccccc3)c2NC(=O)c2cccc(F)c2)CC1 | 17%

Continued.
SMILES | VDR inhibitor
O=C1CN(c2nc3nonc3nc2N2CCCCC2)CCN1 | -1%
S=c1[nH]nc(COc2ccc3ccccc3c2)o1 | -11%
COc1cc(OC)c2c(=O)c(O)c(-c3ccc(OC)c(OC)c3)oc2c1 | 3%
COc1ccc(Cn2c(=O)c3c(nc(NCCO)n3C)n(C)c2=O)cc1 | 10%
Cc1ccccc1N1CCN(S(=O)(=O)c2nnc(NC(=O)c3ccc(C(C)C)cc3)s2)CC1 | 10%
Cc1onc(-c2ccccc2)c1C(=O)c1c[nH]c(C(=O)NCCCN2CCOCC2)c1 | 5%
CC1=C(C(=O)O)N2C(=O)[C@@H](NC(=O)C(N)c3ccccc3)[C@H]2SC1 (some centres not stated) | -16%
Cc1ccc(NC(=O)Cc2ncon2)cc1Cl | -20%
COc1cccc(C(=O)NCCc2sc(-c3cccc(C)c3)nc2C)c1 | 8%
Cc1ccccc1NC(=O)C1CCC(=O)N1 (configuration not stated) | -7%
COc1ccc(C2CC(C(F)(F)F)n3ncc(C(=O)NCC4CCCO4)c3N2)cc1OC (configuration not stated) | 6%
Cc1nn(Cc2ccccc2)c(C)c1/C=N/NC(=O)c1ccccc1O | 4%
CCCCn1c(CCCNC(=O)CC)nc2ccccc21 | -22%
O=C(COC(=O)c1ccco1)NCc1ccc(Cl)cc1Cl | 2%
CC(=O)CCc1c(C)nc2ccc(C)cc2c1Cl | -9%
COC(=O)c1ccc(CN2CCCC(CNC(=O)Cc3ccc(OC)cc3)C2)cc1 (configuration not stated) | -7%
Cc1ccc(NC(=O)CN2CCC(NC(=O)c3ccccc3F)CC2)cc1C | u
Cc1cc(C)c(NC(=S)NC(=O)c2c(Cl)c(C)nn2C)c([N+](=O)[O-])c1 | 2%
CN(C)c1ncc2nc(-c3cc(F)cc(F)c3)c(=O)n(CCC#N)c2n1 | 5%
COc1cc(OC)cc(C(=O)NCC(=O)OC(C)C(=O)NC(C)C2CC3CCC2C3)c1 (configuration not stated) | -6%
COc1ccc(CC(=O)Nc2sc3c(c2C#N)CC(C)(C)NC3(C)C)cc1OC | -18%
COc1cc(OC)cc(OC(=O)c2ccc3c(=O)n4c(nc3c2)CCC4)c1 | 0%
CCOC(=O)C1CCCN(CC(=O)Nc2c(F)c(F)c(F)c(F)c2F)C1 (configuration not stated) | -16%
Cn1c(=O)c2c(nc(NCc3ccc4c(c3)OCO4)n2Cc2ccccc2)n(C)c1=O | 9%
Cc1cccc(COc2ccccc2C(=O)OCC(=O)N(C)c2c(N)n(Cc3ccccc3)c(=O)[nH]c2=O)c1 | -7%
Cc1ccsc1/C=N/NC(=O)c1nnn(-c2nonc2N)c1-c1ccccc1 | 11%
O=C(NC1CC1)C(=O)c1c[nH]c2ccccc12 | -3%
O=C(Nc1ncc(S(=O)(=O)c2ccc([N+](=O)[O-])cc2)s1)c1cccnc1 | -20%
Cc1ccc(S(=O)(=O)CCSc2nccn2C)cc1 | 4%
Cc1ccc([C@@H]2CC=C(C(=O)O)[C@H](c3cccc(F)c3)N2S(=O)(=O)c2ccccc2C)cc1 | -8%
COc1ccc(-n2nnnc2SCC(=O)NCCc2ccc(OC)c(OC)c2)cc1 | 3%
CCC(c1nnnn1Cc1ccc(OC)cc1)N1CCN(c2ccc(OC)cc2)CC1 (configuration not stated) | 0%
Cc1ccc(S(=O)(=O)N(C)CC(=O)Nc2nc3ccccc3s2)cc1 | 11%
NC(=O)c1sc2nc3c(c(-c4cccnc4)c2c1N)CCC3 | 3%
O=C(CSc1nnnn1Cc1ccccc1)c1ccccc1F | 3%
CCCCN(C(=O)CCC(=O)OCC(=O)NCc1ccccc1)c1c(N)n(CCC)c(=O)[nH]c1=O | -1%
COc1ccc(N2CCN(C(=O)CCNC(=O)c3ccc(Br)cc3)CC2)cc1 | 0%
Cc1nn2c(N)c(C#N)cnc2c1-c1ccccc1 | -6%
CC(C)C(OC(=O)c1nsc(Cl)c1Cl)C(=O)NCC1CCCO1 (configuration not stated) | 14%
O=[N+]([O-])c1ccc(N2CCN(S(=O)(=O)Cc3ccccc3)CC2)cc1N1CCOCC1 | -5%

Random excerpt: 2 compounds from above
SMILES | VDR inhibitor
Cc1ccc(S(=O)(=O)CCSc2nccn2C)cc1 | 4%
COc1ccc(-n2nnnc2SCC(=O)NCCc2ccc(OC)c(OC)c2)cc1 | 3%

(cont.)
SMILES | VDR inhibitor
CCN(CC(=O)Nc1c(F)cccc1F)C(=O)C(C)SCc1nc2sc(C)c(C)c2c(=O)[nH]1 (configuration not stated) | 12%
CCN(CC)CCN(Cc1cc2cc3c(cc2[nH]c1=O)OCCO3)C(=S)NCC(C)C | 3%
CCOCCCNC(=O)CN1C(=O)/C(=C\c2ccc(C)cc2)Sc2ccccc21 | 9%
CCOC(=O)c1cnc2ccc(C(=O)OC)cc2c1Nc1ccccc1CC | -4%
Cc1ccccc1NC(=O)CSc1nc(N)c(C#N)c(-c2cccs2)c1C#N | 27%
COc1ccc(N2CCN(C(=O)COC(=O)[C@@H](NC(=O)c3ccccc3Cl)C(C)C)CC2)cc1 | -4%
COc1cn(CC(=O)Nc2ccc(C)cc2C)c(CN2CCCCC2)cc1=O | 3%
Cc1ccc(C(=O)C2CCN(CC(=O)Nc3ccc(N(C)C)cc3)CC2)cc1 | 14%
CC(=O)NS(=O)(=O)c1ccc(NC(=O)c2ccc(Cl)cc2[N+](=O)[O-])cc1 | 20%
Cc1cc(C)cc(NC(=O)c2ccc(Cn3nc(C)c(Cl)c3C)o2)c1 | 11%
O=C(NCCNC(=O)c1ccc(Cl)cc1Cl)c1ccccn1 | -12%
CCS(=O)(=O)c1c(Nc2cc(C)ccc2C)sc(C(=O)c2ccccc2)c1N | 9%
CSc1nsc(/C=C/Nc2ccc(F)cc2)c1C#N | u
COc1cc(CNC[C@H]2O[C@@H](n3cnc(C(N)=O)n3)[C@H](O)[C@@H]2O)ccc1OCc1cccc(Cl)c1 | -17%
CCc1ccc(N2CC(C(=O)Nc3ccc4c(c3)OCO4)CC2=O)cc1 (configuration not stated) | -6%
Cc1[nH]c2ccccc2c1C(c1ccccn1)N1CCC(C)CC1 (configuration not stated) | -4%
Cc1ccc(C)c(C(=O)CN2C(=O)C(=O)N(C3CCCC3)C2=O)c1 | -3%
Cc1cc(C)cc(NS(=O)(=O)c2ccc3[nH]cc(C(=O)N4CCCC4)c(=O)c3c2)c1 | 3%
O=C(NCC(c1cccnc1)N1CCc2ccccc2C1)C(=O)Nc1cccc(Cl)c1 (configuration not stated) | 7%
CCOC(=O)c1c(NC(=O)Cc2ccccc2)sc2c1CCN(C)C2 | 3%
COC(=O)c1cccc(NC(=O)CN(c2ccc3c(c2)OCO3)S(C)(=O)=O)c1C | -4%
CCOC(=O)C1(CCc2ccccc2)CCN(Cc2cccc3nccnc23)CC1 | 0%
Cc1nc2cc(NC(=O)c3ccc(Br)s3)ccc2s1 | 14%
Cc1nc2ccccc2cc1C(=O)NCc1ccco1 | -3%
CCCOc1ccc(C(F)(F)F)cc1NC(=O)CN1C(=O)C(=O)N(CC)C1=O | 1%
CS(=O)(=O)N1CCN(Cc2cc(=O)n3ccsc3n2)CC1 | 8%
CCN(CC)Cc1cc(CC(C(N)=O)C(N)=O)ccc1OC | 1%
COc1ccc(C(=O)COC(=O)CN2C(=O)c3ccccc3C2=O)c(OC)c1 | -3%
COc1cc(NC(=O)CC(c2ccc(C)cc2)N2Cc3ccccc3C2=O)cc(OC)c1 (configuration not stated) | 19%
COc1ccc(CNC(=O)CSc2nc(C)cs2)cc1 | 4%
CCOC(=O)c1ccc(NC(=O)CCS(=O)(=O)Cc2ccccc2)cc1 | -2%
O=c1[nH]nc(SCc2ccccc2)n1C1CC2C=CC1C2 (configuration not stated) | 17%
Cc1ccc(OCCC(=O)Nc2ccc(C)c(F)c2)cc1 | 3%
CCCN(Cc1cc(=O)[nH]c2ccccc12)C(=O)CC | -8%
Cc1cc(OCc2nn[nH]n2)c2c(C)c(Cc3ccccc3)c(=O)oc2c1 | -6%
COC(=O)c1cc(S(=O)(=O)N2CCN(c3cc(C)ccc3C)CC2)c[nH]1 | -4%
CC(C)OCCCn1c(=S)[nH]c2ncccc2c1=O | -17%
O=C(CCCc1nc(-c2ccccc2)no1)Nc1cc(C(F)(F)F)cc(C(F)(F)F)c1 | 10%
CC(=O)c1ccc(NC(=O)CSc2nnc(-c3ccoc3C)n2Cc2ccccc2)cc1 | -1%
CN(CCOc1cccc(C(F)(F)F)c1)Cc1ccccc1 | -4%
Cc1ccc(SCCNC(=O)c2ccccc2F)cc1 | -16%
O=C(COC(=O)CNC(=O)c1sc2ccccc2c1Cl)Nc1c(Cl)cc(Cl)cc1Cl | -6%
CCOc1ccc(NC(=O)c2cccnc2SC)cc1 | 0%
O=C(Nc1ccc2oc(=O)ccc2c1)c1ccccc1[N+](=O)[O-] | -2%
